# UCH37 inh – inhibitors of human UCH37 deubiquitinase, primary screen, biochemical, Ub-AMC cleavage, fluorescence; Ubiquitin carboxyl-terminal hydrolase isozyme L5 (Homo sapiens), Q9Y5K5; AID 588478, 2011; inhibition, % (no concentration beside the values); actives 0.33% (n = 330,000); purified proteasome/UCH37;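 active means mean of two replicates above 20%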;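 further: 0% = compound-free wells with enzyme and 100% = wells lacking proteasome; stock transfer was 100 nL into about 20 µL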
# Target sequence (Q9Y5K5 whole entry, looked up): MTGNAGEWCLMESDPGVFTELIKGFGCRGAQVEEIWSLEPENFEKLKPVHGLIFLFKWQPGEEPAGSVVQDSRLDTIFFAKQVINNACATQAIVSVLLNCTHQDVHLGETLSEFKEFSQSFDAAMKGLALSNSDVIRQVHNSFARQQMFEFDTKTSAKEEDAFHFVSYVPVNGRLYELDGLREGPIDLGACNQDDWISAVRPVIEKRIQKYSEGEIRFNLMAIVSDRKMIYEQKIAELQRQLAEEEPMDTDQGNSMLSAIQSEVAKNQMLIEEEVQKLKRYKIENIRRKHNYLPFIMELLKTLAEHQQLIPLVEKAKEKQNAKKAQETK
#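 Schedule: 30 min plus 25 min, room temperature / Material: human UCH37 within purified proteasomes / Technique: AMC fluorescence intensity at 355/460 nm / Buffer or medium: pH 7.4 Tris-HCl (50 mM) with ovalbumin, ATP-MgCl2, DTT / Controls: wells without proteasome as full block, compound-free enzyme plus substrate as uninhibited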
# Active calls of the source: *. An excerpt; count on the stated rates, not on these rows.
Compound | UCH37 inh
CC(=O)Nc1ccc(S(=O)(=O)Oc2ccc(C=NNC(=O)c3ccc(Cl)cc3)cc2)cc1 | 2.0
ON=C(c1ccc(Cl)cc1)c1ncc(C(F)(F)F)cc1Cl | 3.9
Cn1c(SCC(=O)NN=Cc2cc([N+](=O)[O-])ccc2O)nnc1-c1ccccc1 | 8.2
COc1ccccc1C=NNC(=O)c1cccc(NC(=O)c2ccccc2Cl)c1 | 3.8
O=[N+]([O-])c1ccccc1/C=C/C=NNc1nc(N2CCCCC2)nc(N2CCCCC2)n1 | 0.0
Oc1ccc2oc3c(c2c1C=Nn1cnnc1)CCCC3 | 0.7
CC(=NNC(=O)c1cccc(F)c1)c1cccc(NC(=O)c2ccc(F)cc2)c1 | 3.9
COc1ccc(C=NNC(=O)c2ccc3c(c2)OCCO3)cc1[N+](=O)[O-] | 4.8
COc1cccc(C=NNc2nnc3c(n2)[nH]c2ccccc23)c1OC | 3.4
Cn1c(NN=Cc2cccc(O)c2)cc(=O)n(C)c1=O | 12.8
COc1ccc(C=NNC(=O)c2ccncc2)c(C(=O)O)c1OC | 8.9
CCC1S/C(=N/N=Cc2ccco2)NC1=O (stereo not given) | 15.9
CCN(CC)C(=NS(=O)(=O)c1ccc(F)cc1)c1ccccc1 | 0.0
Cc1ccc(-n2ncc(C#N)c2N=CN(C)C)cc1 | -0.8
CN(C)S(=O)(=O)c1ccc(C(=O)NCC(=O)NN=Cc2ccccc2Cl)cc1 | 1.4
O=C(O)c1ccccc1C=Nn1c(C2CCCCC2)n[nH]c1=S | 3.4
CN1CCN(CCC(=O)NN=C/C=C2\N(C)c3ccccc3C2(C)C)CC1 | 6.7
CN(C)c1ccc(C=NN=C(N)N)cc1[N+](=O)[O-] | 12.8
C=C(C)C1CC=C(C)C(=NNC(=O)COc2ccc(Cl)cc2)C1 (stereo not given) | -1.2
CCOc1cc(C=NNC(=O)c2ccc(N(C)S(=O)(=O)c3ccccc3)cc2)ccc1OC | -12.3
CC(C)c1ccc(C=NNC(=O)c2ccccc2Cl)cc1 | 3.8
O=C(CON=Cc1cccc([N+](=O)[O-])c1)NC1CCCCC1 | 2.8
CC(=NO)c1ccc(Cl)cc1Cl | 5.7
CCOC(=O)C1=c2sc(=Cc3cccnc3)c(=O)n2C(N)=C(C(=O)OC)C1c1cccnc1 (stereo not given) | 8.0
CCC(C)C(C)=NNC(=O)c1cn(-c2ccccc2)nc1-c1ccccc1 (stereo not given) | 0.6
COc1ccc(C=Nn2cncn2)cc1Cn1cc([N+](=O)[O-])cn1 | 3.4
CON=CCc1oc(=O)c(NC(=O)c2ccccc2)cc1C(=O)OC | 1.5
Cc1ccc([N+](=O)[O-])c(C(=O)NN=Cc2cccs2)c1 | 7.8
Cn1cccc1CC(=O)NN=Cc1ccccc1 | 2.3
Cc1ccc(C(=O)NN=Cc2nc3ccccc3n2C)cc1 | -77.5
O=C(CCc1ccc(O)c(O)c1)NN=Cc1cc2c(cc1[N+](=O)[O-])OCO2 | 8.8
CC1=NNC(=O)C1CCC(=O)NN=C/C=C/c1ccccc1 (stereo not given) | 3.2
Cc1ccc2nc(SCC(=O)NN=Cc3ccco3)cc(C)c2c1 | 3.1
COc1ccc(C=NNc2nc(C)cc(=O)[nH]2)cc1OC | 7.3
CCOc1ccc(C=NOCC(=O)Nc2cc(S(=O)(=O)N3CCOCC3)ccc2OC)cc1 | -3.3
O=C(NN=Cc1ccccc1O)/C(=C/c1ccccc1)CCO | 1.5
CC(ON=Cc1ccccc1OC(F)F)C(=O)Nc1cccc(S(=O)(=O)N2CCOCC2)c1 (stereo not given) | -0.7
CCC(Cc1ccccc1)=NNC(=O)CCn1nnc2ccccc21 | 1.5
COC(=O)c1cccc(Cn2c(Cl)c(C=NNc3ccccc3C)sc2=O)c1 | 4.3
CC(=NNC(=O)c1c(-c2ccccc2Cl)noc1C)c1cccc(NC(=O)C(C)C)c1 | 4.0
CC1CCCC(=NNc2nc3ccccc3s2)C1 (stereo not given) | -1.6
Cc1ccc(-c2c(C(=O)NN=Cc3ccncc3)nnn2-c2nonc2N)cc1 | 5.7
COc1cccc(C=NNC(=O)c2cc3c(OC)c(OC)ccc3[nH]2)c1OC | -4.9
CCOC(=O)NN=Cc1ccc(-c2cc(Cl)ccc2Cl)o1 | 2.3
COc1ccc2ccccc2c1C=NNC(=S)Nc1cc(S(=O)(=O)N2CCOCC2)ccc1N1CCOCC1 | -8.4
CC(=NNC(=O)CNC(=O)Cc1ccc(Cl)cc1)c1ccco1 | 0.8
CCCOc1ccc(C=Nn2nnnc2N)cc1OC | -17.2
Clc1cc2c(cc1C=NNc1nc(N3CCOCC3)nc(N3CCOCC3)n1)OCO2 | -1.0
Oc1ccc(C=NNc2ccnc3cc(Cl)ccc23)cc1O | -14.4
Cc1cccc(NC(=O)c2c(O)c3cccc4c3n(c2=O)CCC4)n1 | 1.7

# The list goes on.
Compound | UCH37 inh
CC(=O)ON=C1C(=O)N(Cc2ccc(C)cc2)c2ccccc21 | 4.1
COc1ccc(C=NNc2nonc2N)c(OC)c1 | 1.4
COc1ccccc1Sc1ccccc1C=NNC(N)=O | 4.2
CC(=NNC(=O)c1nn(C)cc1Br)c1ccncc1 | 0.4
FC(F)(F)c1ccc(C=NN2CCN(Cc3ccccc3)CC2)cc1 | -0.4
CCOc1ccc2c(c1)sc(=NS(=O)(=O)c1ccc(OC)cc1)n2C(F)F | -1.5
NC(=Nc1nc2ccccc2o1)NC(=O)c1ccc([N+](=O)[O-])cc1 | 4.2
CC(=NNC(=O)c1ccccc1F)c1ccc2c(c1)Nc1ccccc1S2 | 2.0
COc1ccccc1-c1cnnc(NN=Cc2ccc(-c3cccc(Br)c3)o2)n1 | 9.0
CC(CC(=O)Nc1ccc(Cl)c(C(F)(F)F)c1)=NNC(=O)c1cccc(O)c1 | 0.1
Cc1cccc(OCC(=O)NCC(=O)NN=Cc2cccs2)c1 | 2.8
COc1ccc(C=Nn2c(SC)nnc(C(C)(C)C)c2=O)cc1OC | 5.0
CC(=NNC(=O)Cn1nc(C)c([N+](=O)[O-])c1C)c1ccco1 | 6.5
CCC(=NNC(=O)c1ccccc1Cl)c1ccc(Br)s1 | 3.8
CC(C)c1c(C(=O)NN=Cc2ccsc2)nnn1-c1nonc1N | 1.5
CCOc1ccc(S(=O)(=O)Nc2ccc(C(=O)NN=Cc3c(C)nn(-c4ccccc4)c3N3CCCC3)cc2)cc1 | -8.8
O=C(NN=Cc1ccc2c(c1)OCO2)c1ccco1 | 5.8
CCOC(=O)c1ccc(C=NO)[n+](Cc2ccccc2)c1 | 10.3
Cc1ccc(C=NNC(=O)c2ccco2)cc1 | 2.6
CC(Nc1cccc2ccccc12)C(=O)NN=Cc1ccc([N+](=O)[O-])cc1 (stereo not given) | 3.0
Cc1nc2ccccc2n1CC(=O)NN=C/C=C/c1ccccc1 | 3.0
CC(Cn1nc([N+](=O)[O-])cc1C)=NNC(=O)COc1ccccc1[N+](=O)[O-] | 0.5
CC(=NNC(=O)c1ccc2c(c1)OCCO2)c1ccc([N+](=O)[O-])cc1 | 2.8
Cc1ccc(S(=O)(=O)NN=Cc2ccc3nccnc3c2)cc1 | 10.3
Cc1cccc(C=NNC(=O)NC2CCCCC2)c1 | 3.4
O=C(O)c1cccc(-c2ccc(C=NNc3ccc([N+](=O)[O-])cc3)o2)c1 | 13.9
O=C(NN=Cc1ccc(O)c(O)c1)NN=Cc1ccc(O)c(O)c1 | 5.9
Cc1cc(C(=O)NN=Cc2cccc([N+](=O)[O-])c2)c(C)n1-c1ccccc1 | 4.5
O=C(CN1c2ccccc2Sc2ccccc21)NN=Cc1ccc(Cl)cc1 | 2.3
CCOC(=O)c1sc(N=CN(C)C)nc1C | 8.8
O=c1c(=Cc2ccc(O)cc2)sc2nc(-c3ccccc3)c(-c3ccccc3)n12 | 9.2
O=C(COc1ccccc1-c1ccccc1)NN=Cc1ccccn1 | 3.2
CC(C)n1cc(C=NNC(=O)COc2cccc3cccnc23)c2ccccc21 | 8.1
O=C(O)CCC(=NNC(=O)c1ccncc1)c1ccccc1 | 0.8
Cc1ccc(-n2c(SCC(=O)NN=Cc3ccccc3C(=O)O)nnc2-c2ccccc2)cc1 | 0.5
COc1cccc(C=Nn2nnc3c(cnn3-c3ccccc3)c2=O)c1 | -6.0
O=C(NCCCNC1CCCCC1)c1ccc(C=NO)nc1 | 5.1
CC(CC(=O)Nc1ccc(Cl)cc1)=NNC(=O)C(=O)N1CCCCC1 | -1.3
CNC(=S)NN=C(C)c1ccc2c(c1)OCCO2 | 6.5
CC(=NNC(=O)c1nnn(-c2nonc2N)c1CN(C)c1ccccc1)c1cccs1 | 0.7
O=C(CSc1ccccn1)NN=C/C=C/c1ccccc1 | 5.9
O=C(COc1ccc2ccccc2c1)NN=CC1CC=CCC1 (stereo not given) | 5.0
CON=CC(c1ccc(Cl)nc1)S(=O)(=O)c1ccccc1 (stereo not given) | -0.3
COc1ccc(OC)c(C=NNC(=O)c2cc[n+](CC(=O)c3ccccc3)cc2)c1 | -15.4
CCc1ccc(C(=O)NN=Cc2cccc3ccccc23)nc1 | -0.1
NC(=O)NN=Cc1cccs1 | 3.3
C/C(C=Nn1c(-c2ccco2)n[nH]c1=S)=C\c1ccco1 | 7.9
COc1ccc(C=NNC(=O)Cc2cc(OC)c(OC)cc2[N+](=O)[O-])cc1 | 6.8
CC(=O)Nc1ccc(S(=O)(=O)NN=Cc2cccnc2)cc1 | 6.8
COc1cc(C=Nn2cnnc2)ccc1OCCOc1ccccc1 | -1.5

# Six entries from above, with values ahead of the structure:
UCH37 inh,mol
0.7,CC(=NNC(=O)c1nnn(-c2nonc2N)c1CN(C)c1ccccc1)c1cccs1
5.9,O=C(CSc1ccccn1)NN=C/C=C/c1ccccc1
5.0,O=C(COc1ccc2ccccc2c1)NN=CC1CC=CCC1 (stereo not given)
-0.3,CON=CC(c1ccc(Cl)nc1)S(=O)(=O)c1ccccc1 (stereo not given)
-15.4,COc1ccc(OC)c(C=NNC(=O)c2cc[n+](CC(=O)c3ccccc3)cc2)c1
-0.1,CCc1ccc(C(=O)NN=Cc2cccc3ccccc23)nc1

# Further records follow.
Compound | UCH37 inh
CCN(CC)Cc1c(C(=O)NN=Cc2cccnc2)nnn1-c1nonc1N | 4.8
O=C(NN=Cc1cccc(Cl)c1)c1c(O)c2c([nH]c1=O)CCCC2 | -4.4
O=C(NN=Cc1ccc(Br)cc1)c1cc[n+]([O-])cc1 | 7.9
O=C(/C=C/c1ccccc1)NCC(=O)NN=Cc1cccnc1 | 1.3
C(=NNc1nccc(-c2cccnc2)n1)c1ccccc1 | 9.0
CCC(C)[C@H](NC(=O)OC(C)(C)C)C(=O)NN=Cc1ccc2cc(OC)ccc2n1 (stereo not given in full) | -235.9
CCOC(=O)c1sc(N=CNc2nc(C)c(C(=O)OCC)s2)nc1C | -10.0
CC1(C)CC(=O)C2=C(C1)OC(N=CN1CCOCC1)=C(C#N)C2c1ccccc1 (stereo not given) | -0.5
O=[N+]([O-])c1ccc(-c2ccc(C=NNc3nc(N4CCCCC4)nc(N4CCCCC4)n3)o2)cc1 | 3.5
O=C(CN1CCCc2ccccc21)NN=Cc1ccccc1O | -1.5
O=S(=O)(c1ccc(NC(=S)NN=Cc2cccc(Oc3ccccc3)c2)cc1)N1CCOCC1 | 2.3
Cn1cnnc1SCC(=O)NN=Cc1ccc(OCC(N)=O)cc1 | 4.0
Cn1c(O)c(C=NNC(=O)c2cc3ccccc3cc2O)c2ccccc21 | -26.6
O=C1C2C3c4ccccc4C(c4ccccc43)C2C(=O)N1N=Cc1cccc(O)c1 (stereo not given) | 2.3
Cc1cc(-c2n[nH]c(=S)n2N=C/C(Cl)=C/c2ccccc2)n[nH]1 | 3.3
CC(C)c1c(C(=O)NN=Cc2cccc3ccccc23)nnn1-c1nonc1N | 1.6
Oc1ccc(C=Nn2c(C3CCCCC3)n[nH]c2=S)c(O)c1 | 5.4
C(=NNc1ccccn1)c1ccc2c(c1)OCCO2 | 6.0
Nc1nonc1C(=O)NN=Cc1ccncc1 | 4.5
O=C(NN=Cc1cccnc1)c1ccccc1O | 12.8
COc1ccc2c(c1[N+](=O)[O-])CCCC2=NOC(=O)c1cccc2ccccc12 | 4.1
O=C(CNC(=O)C(c1ccccc1)c1ccccc1)NN=Cc1ccc2c(c1)OCO2 | -1.0
COc1ccc(O)c(C=NNS(=O)(=O)c2ccc(C)cc2)c1 | 4.1
CC(C)=CCC/C(C)=C/CCC(C)=NO | 2.7
Cc1ccc(C=Nn2c(-c3cccnc3)n[nH]c2=S)o1 | 4.1

# Structures from the list above that contain a tert-butyl group:
Compound | UCH37 inh
COc1ccc(C=Nn2c(SC)nnc(C(C)(C)C)c2=O)cc1OC | 5.0
CCC(C)[C@H](NC(=O)OC(C)(C)C)C(=O)NN=Cc1ccc2cc(OC)ccc2n1 (stereo not given in full) | -235.9

# The list goes on:
Compound | UCH37 inh
C=CCOc1ccc(C=NNC(=O)CN(c2cc(Cl)ccc2OC)S(=O)(=O)c2ccc(C)c([N+](=O)[O-])c2)cc1 | 5.1
CSCCC(NC(=O)c1ccccc1)C(=O)NN=C(C)c1ccccc1 (stereo not given) | 2.5
CC(=NNC=O)c1ccncc1 | -1.9
COC(=O)NN=Cc1cc(OC)c(O)c([N+](=O)[O-])c1 | 14.1
O=C(COc1ccccc1[N+](=O)[O-])NN=Cc1ccc(O)cc1 | 4.5
Clc1ccc(N2CCN(N=Cc3ccncc3)CC2)cc1 | 4.5
O=C(CN1c2ccccc2Sc2ccccc21)NN=Cc1ccc(Cl)cc1Cl | 7.1
Cc1ccc(CON=Cc2c(O)cc(C)oc2=O)cc1 | -1.0
O=C(CC=NOCc1c(Cl)cccc1Cl)c1ccc(Cl)cc1 | 3.9

# Assay outcomes as filed in PubChem.
